BasE inh: BasE siderophore enzyme inhibitors, primary screen, biochemical, Acinetobacter baumannii ATCC 17978, fluorescence polarization | inhibition, % (test concentration not listed) | AID 485350, 2010 | purified BasE, fluorescence polarization binding displacement | actives 0.1% (n = 84,000);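 active means both replicates above 25% with normal brightness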;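 further: 0% = negative plate control signal and 100% = positive plate control signal; stock transfer was 100 nL into about 30 µL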
LANA-nucl inh: inhibitors of KSHV LANA-nucleosome binding, primary screen, biochemical, fluorescence polarization, FITC-LANA1-23, chicken nucleosomes. FITC-LANA1-23 / chicken nucleosome fluorescence polarization; hits give low values. AID 720717, 2013. z-score (concentration not given with the values). actives 0.3% (n = 51,000);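 active means both repeat wells score below -2 in polarization z-score versus plate sample wells, excluding overly bright wells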;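 further: 100 nL library stock added to about 30 µL; numbers are from one replicate; some results filed as inactive read as strong as hits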
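System – purified chicken nucleosomes with FITC-labelled LANA N-terminal peptide (1-23) · Amount – 240 nM purified chicken nucleosomes (480 nM peptide binding sites), final · Also added – 50 nM FITC-LANA1-23 probe · Medium – TEN-BT buffer, pH 7.5 · Incubation – compound with peptide–nucleosome mix 10–45 min at room temperature · Detection – fluorescence polarization, ex 480 nm, em 535 nm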
Starred values were filed as active, the others as inactive; . = no result given; & = joins results of further samples. This is a subset. The share of hits here may be higher or lower than overall.

SMILES	BasE inh	LANA-nucl inh
CCN=c1scc(C)n1/N=C/c1ccc2c(c1)OCCO2	2.6	.
O=C(NCc1csc2ccc(Cl)cc12)c1ccc(C(F)(F)F)cc1	0.7	.
O=C(O)c1ccc(-c2cn3cccnc3n2)cc1	5.2	.
CCC1(CC)NC(=O)N(Cc2nnc(-c3ccccc3Br)o2)C1=O	-2.8	.
COc1ccc(-c2[nH]ncc2Oc2ccccc2)c(O)c1	1.6	0.352
CC(=O)OCC(=O)NCCCOc1cccc(CN2CCCCC2)c1	.	0.151&0.01
CCn1c(SCC(=O)OCC(=O)N=c2sccn2Cc2ccc(C)cc2)nnc1-c1ccco1	-1.0	.
CC(=O)Nc1ccc(C(=O)OCC(=O)c2ccc3c(c2)OCCO3)cc1	-15.5	.
O=C1CSC(=O)N1CC(O)Cn1c2ccccc2c2ccccc21 (stereo not given)	1.8	-0.609
Cc1c(O)c(C(=O)c2nn[nH]n2)c(=O)n(-c2ccccc2)c1-c1ccccc1	-2.9	.
CC1(C)C2CC[C@@](C)(C2)C1NS(=O)(=O)c1ccc(-c2cc(C(F)(F)F)on2)s1 (stereo not given in full)	1.4	.
CC1(C)CC2CC(C)(CN2C(=O)CSc2nn3c(=O)c(C(C)(C)C)nnc3s2)C1 (stereo not given)	-1.2	.
Cc1onc(-c2ccccc2Cl)c1C1=NCCO1	2.0	.
Cc1nnc(SCN2C(=O)c3ccccc3C2=O)n(N)c1=O	0.3	.
Cc1ccc(NC2(C#N)C(=O)Nc3ccccc32)cc1C (stereo not given)	0.9	-0.292
COc1ccc(/C=C/C(=O)OCC(=O)N2CC(C)CC(C)C2)cc1 (stereo not given)	-1.2	.
COC(=O)CSc1nnc(C2CCCCC2)n1Cc1ccccc1	-1.0	-0.0115
COc1ccc(N=Cc2cc(Br)ccc2O)c(S(=O)(=O)N2CCOCC2)c1	15.4	.
COc1cccc(NC(=O)NCCCNc2nc3cc(C)cc(C)c3cc2C#N)c1	-0.9	1.03
NCCN1C(=O)S/C(=C\c2ccc(Cl)c(Cl)c2)C1=O	-0.9	.
CC(C)Cn1c(CC(C)(C)C)nc2ccccc21	-0.3	-0.865
O=C1CN(Cc2ccccc2)CC(=O)N1CCc1ccccc1	1.3	-0.748
COc1ccc(C=C2C(=O)N(C)C(=S)N(C)C2=O)c(C)c1	-0.3	.
Cc1ccc(-n2c(SCC3NS(=O)(=O)N=C4CCCCCN43)nnc2-c2ccccc2)cc1C (stereo not given)	-0.2	.
COCc1cc(C)nc2sc(C(=O)Nc3ccc(S(N)(=O)=O)cc3)c(N)c12	1.0	-0.357
(listing goes on)
SMILES	BasE inh	LANA-nucl inh
c1c2c(cc3sc(N4CCCCC4)nc13)OCCO2	-0.3	-0.488
COc1cc2c(cc1OC)C(=O)N(Cc1c(Cl)cccc1Cl)CC2	.	-0.0245
COc1cc2cc(C(=O)O)cc(-c3ccc(C)cc3)c2cc1OC	-0.5	.
CN1CCC(N(C)C(=O)COc2ccccc2Cl)CC1	-2.4	.
CC(C)C(=O)Nc1sc2c(c1C(=O)O)CCCC2	0.1	-0.232
O=C1Nc2ccccc2/C1=C\c1ccc(N2CCOCC2)cc1	-1.1	.
CN1C(=O)/C(=C/c2cn(CC(=O)N3CCCC3)c3ccccc23)C(=O)NC1=S	3.4	-0.848
COCCNC(=S)c1ccc(OC)cc1	0.5	1.45
O=C(O)/C(S)=C\C=C\c1ccccc1	4.3	.
CCC(=O)c1c[nH]c(C(=O)NC)c1	.	0.57
COC(=O)c1cccc(OCC(O)Cn2ccnc2)c1 (stereo not given)	2.0	0.176
COc1ccc(CCNC(=O)/C(C#N)=C/c2ccc[nH]2)cc1OC	-0.4	-0.771
O=C(CCCSc1ccccc1)Nc1cccc(CO)c1	-0.7	.
O=C(Nc1nc2ccc(S(=O)(=O)N3CCCC3)cc2s1)c1ccncc1	-6.2	1.19
CC(C)Oc1ccc(CCN=C(N)N=C(N)N)cc1Cl	1.6	0.582
CC1CCCC(C)N1C(=O)COC(=O)c1ccc[nH]c1=O (stereo not given)	0.2	.
O=C1NCCN/C1=C/C(=O)c1ccc(Br)cc1	1.4	.
COc1ccccc1NC1=NC(C)(C)N=C(N)N1	2.6	.
COc1cccc(NC(=O)C2CCN(S(=O)(=O)c3cc(Br)cc4c3N(C(C)=O)CC4)CC2)c1	-1.0	0.692
N#Cc1ccc(CN2CCCC2)cc1	0.9	.
CCc1ccc(OCc2nnc(SCC(=O)NC)n2CC(C)C)cc1	-1.5	.
CCn1nnc2cc(C(=O)Nc3ccc4c(c3)CCC4)ccc21	-2.4	.
O=c1oc2cc(Oc3ncccn3)ccc2c2c1CCCCC2	-2.2	.
O=C(NN1C(=O)c2ccccc2C1=O)c1cccc(Cl)c1	1.2	-0.263
CC1CCc2c(sc3nc(CSc4n[nH]c(N)n4)[nH]c(=O)c23)C1 (stereo not given)	-2.3	.

The closing three compounds of the section above lead into the next.
SMILES	BasE inh	LANA-nucl inh
O=c1oc2cc(Oc3ncccn3)ccc2c2c1CCCCC2	-2.2	.
O=C(NN1C(=O)c2ccccc2C1=O)c1cccc(Cl)c1	1.2	-0.263
CC1CCc2c(sc3nc(CSc4n[nH]c(N)n4)[nH]c(=O)c23)C1 (stereo not given)	-2.3	.
CCOC(=O)C(C)(N)Cc1ccc(O)c(O)c1 (stereo not given)	.	0.114
CC(C)C(=O)N(c1ccc(Cl)cc1)C1C=CS(=O)(=O)C1 (stereo not given)	0.3	0.594
Cc1oc(C)c(C(=O)Nc2ccc(CC(=O)O)cc2)c1C(=O)Nc1ccc(CC(=O)O)cc1	4.4	0.954
O=S(=O)(/C=C/c1ccccc1)NNc1ccccc1	-0.2	0.221
CC(Sc1nnc(-c2cc3ccccc3o2)n1-c1ccccc1)C(=O)O (stereo not given)	1.8	0.161
O=C(O)CCN1N=C(c2ccccc2)/C(=C\c2cn(-c3ccccc3)nc2-c2cc3ccccc3o2)C1=O	2.6	.
Cc1cccc(C(=O)Nc2cccnc2)c1	11.3	-0.152
O=C(COc1ncnc2ccccc12)Nc1ccc(Cl)cc1	0.9	.
Cc1nc2ccccc2c(=O)n1CCO	4.3	-0.207
C=CCC(C#Cc1ccccc1)N(C)C (stereo not given)	-0.4	0.319
Cc1ccc2c(=O)cc(-c3ccc(F)cc3)oc2c1	0.5	.
Cc1ccc(S(=O)(=O)N(C)c2ccc(OCC(=O)Nc3ccc(N4CCN(C)CC4)cc3C)cc2)cc1	-0.5	.
Cc1nc(C)c(CCNC(=O)c2cccs2)s1	0.0	-0.443
COc1ccc(CC(=O)N2CCC3(CC2)N=C(c2ccc(C)cc2)C(=O)N3)cc1OC	-0.9	-1.32
COC(=O)c1ccn(-c2nc(-c3cccs3)cc(C(F)(F)F)n2)n1	0.4	-0.929
O=c1[nH]cnc2cccc(F)c12	1.0	0.008
Cc1ccsc1C(=O)OCC(=O)c1cc2ccccc2o1	-3.5	.
O=C(NC(=O)c1csc(-c2ccc(C(F)(F)F)cc2Cl)n1)Nc1ccc(F)cc1	1.8	.
CN(C)Cc1ccc(CN)cc1	-1.5	0.167
O=C(c1cccc(Br)c1)N1CCN(c2cnn(-c3ccccc3)c(=O)c2Cl)CC1	-0.4	0.345
CP1(=O)COc2ccccc2OC1	2.0	.
C#CC1(O)c2ccccc2CCc2ccccc21	1.0	0.996
Cc1ccc(N2C(=O)c3ccccc3C2C(=O)c2ccc(C)cc2O)cc1 (stereo not given)	2.8	.
CCS(=O)(=O)N1CCN(S(=O)(=O)c2ccc(C(C)C)cc2)CC1	-1.5	0.633
Cc1ccc(C2CC(=O)N3CN(CCc4ccccc4)CSC3=C2C#N)cc1 (stereo not given)	-2.0	0.713

A portion from further up, for reference:
SMILES	BasE inh	LANA-nucl inh
CCC(=O)c1c[nH]c(C(=O)NC)c1	.	0.57
COC(=O)c1cccc(OCC(O)Cn2ccnc2)c1 (stereo not given)	2.0	0.176
COc1ccc(CCNC(=O)/C(C#N)=C/c2ccc[nH]2)cc1OC	-0.4	-0.771

Complete entries, looked up by structure:
Listed for `Cc1nc2ccccc2c(=O)n1CCO` = BasE inh = 4.3; LANA-nucl inh = -0.207
Listed for `Cc1cccc(C(=O)Nc2cccnc2)c1` = BasE inh = 11.3; LANA-nucl inh = -0.152
Listed for `Cc1oc(C)c(C(=O)Nc2ccc(CC(=O)O)cc2)c1C(=O)Nc1ccc(CC(=O)O)cc1` = BasE inh = 4.4; LANA-nucl inh = 0.954

Carrying on.
SMILES	BasE inh	LANA-nucl inh
O=C1N=c2ccccc2=C1c1c(O)[nH]c2ccc(Cl)cc12	-0.9	2.55
Cc1cc(C(=O)CSc2n[nH]c(-c3cccs3)n2)c(C)n1Cc1ccco1	-0.3	.
CCCS(=O)(=O)NCc1ccc(C(=O)O)cc1	0.7	.
COc1ccc(-c2noc(CN(C)C(=O)N3c4ccccc4Sc4ccccc43)n2)cc1OC	1.1	0.0865
CCn1c(SCC(=O)NCc2ccccc2)nc2c([nH]c3ccccc32)c1=O	-4.0	1.53
COc1ccccc1/C=C/C(=O)Nc1nc(N)n(-c2ccccc2)n1	-1.7	.
CNC(=O)NC(=O)C(C)Sc1nc2ccc(C)cc2[nH]1 (stereo not given)	-1.3	.
Clc1ccc(C(c2ccccc2Cl)C(Cl)Cl)cc1 (stereo not given)	-1.3	0.0505&-0.569
NC(=S)NC1CC2CC1C1C=CCC21 (stereo not given)	2.4	-0.835
COc1cc(CN2CCC(N)CC2)cc(OC)c1OC	-1.0	-0.337
O=C(CN1C(=O)c2cccc3cccc1c23)Nc1ccccc1	-2.2	0.467
CN(C)CCN(C)Cc1ccccc1C(F)(F)F	1.4	-0.603
NS(=O)(=O)c1ccc(CCNC(=O)CC2=NS(=O)(=O)c3ccccc3N2)cc1	0.7	-0.845
O=C(C(Sc1nnnn1C1CCCC1)c1ccccc1)N1CCOCC1 (stereo not given)	0.7	.
O=C(OCc1nc2ccc(Cl)cc2n1CCO)c1ccccc1	-2.2	.
Cc1ccc(N(C(=O)Cn2nnc(-c3ccc(C)o3)n2)C(C(=O)NCC2CCCO2)c2ccc(F)cc2)cc1 (stereo not given)	-0.4	0.57
COc1ccccc1N1CCN(CCCCNC(=O)c2ccc(Cl)cc2)CC1	1.4	-1.43
CNCCCNc1ccnc2cc(Cl)ccc12	-2.5	-1.36
CCCC(=O)Nc1ccc(Cl)c(NC(=O)c2cccnc2Cl)c1	1.4	-0.661
CC(=O)N1N=C(c2c(-c3ccccc3)c3cc(C)ccc3[nH]c2=O)CC1c1ccco1 (stereo not given)	6.4	.
COc1ccc(CN2C(=O)c3cccnc3C2=O)cc1S(=O)(=O)N1CCCCC1	0.0	.
Cc1nn(-c2cccc(C(F)(F)F)c2)c2sc(C(=O)O)cc12	3.8	.
O=S(=O)(Nc1ccc(F)cc1)c1cccc2cccnc12	2.6	-0.802
Cn1nc(C(=O)NC(c2ccccc2)c2ccccc2)ccc1=O	0.7	.
Cc1ccc(C)c(NC(=S)NC2CC3CCC(C2)N3Cc2ccco2)c1 (stereo not given)	3.0	-0.148
The list continues.
SMILES	BasE inh	LANA-nucl inh
COC(=O)c1oc2cc(C)ccc2c1C	-0.8	0.83
CCOC(=O)/C(=N\O)C1=NC(C)(C)Cc2ccccc21	0.9	-0.0095
Cc1nnc(SCC(=O)NCC(F)(F)F)n1N	-2.9	.
CCOc1ccc(NC(=O)CC2C(=O)NCCN2C(=O)Nc2ccccc2)cc1 (stereo not given)	-0.6	0.607
COC(=O)c1c(C)oc2ccc(O)c(CN3CCCCC3)c12	0.5	-0.35
Cc1ccc2oc3c(c(=O)c2c1)C(c1cccs1)N(CCN(C)C)C3=O (stereo not given)	0.8	0.875
O=C(NCCCN1CCCC1=O)Nc1cccc(C(F)(F)F)c1	-0.4	.
CCc1c(CN2CCN(Cc3ccccc3)CC2)csc1C	-1.0	0.667
COc1cc2c(cc1OC)C(C)N(c1ncnc3onc(C)c13)CC2 (stereo not given)	2.8	.
CN(C)CCOC(c1ccccc1)c1ccccc1	-2.3&17.9	0.245&-0.0695&0.297&-0.269&-0.481
O=c1oc2ccc(Cl)cc2nc1/C=C(\O)c1ccco1	10.8	.
Cc1ccccc1OCCn1c(O)c(N=O)c2ccccc21	-2.5	.
Cc1n[nH]c(C)c1S(=O)(=O)N1CCC(C(=O)N(C)Cc2cccc(Cl)c2Cl)CC1	-1.2	.
NS(=O)(=O)c1cc(C(=O)OCC(=O)N2CCCC2=O)ccc1Cl	0.5	.
CCC(C)Nc1ncnc2cc(OC)c(OC)cc12 (stereo not given)	-2.1	.
CC(=O)N1CCN(S(=O)(=O)c2cccc(C(=O)OCC(=O)c3cc(C)n(-c4ccc5c(c4)OCO5)c3C)c2)CC1	-0.2	.
N#Cc1ccc(OCC(=O)Nc2ccc(-c3nnc4n3CCCCC4)cc2)cc1	-0.2	.
CCC1(c2ccccc2)NC(=S)N(C)N1 (stereo not given)	-1.3	0.169
O/N=C/c1ccc(-c2cc(C(F)(F)F)cc(C(F)(F)F)c2)o1	-1.4	.
CC1Cc2ccccc2N1C(=O)NC1CC(=O)N(c2ccccc2)C1 (stereo not given)	1.3	-1.05
